From PubChem BioAssay
miR-21 reporter – miR-21 reporter, rising signal | HeLa miR-21 FLuc reporter, luciferase, 48 h | Potency, µM (titrated, usually from 38.3 µM), for inactives: at the top dose reporter change, positive = more light | 340,000 tested, under 10 active | AID 2288; active = well fitted rising curve with a large enough effect; inconclusive = small, poorly fitted or top-dose-only effect; inactive = no such curve, though single readings can be large or run the other way;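 note: % of control where 0% means no effect; miR-21 action dims this reporter so a rising signal means less miR-21 action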
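Using DMEM plus 10% FBS, HeLa miR-21-FLuc cells are incubated with test compounds (final up to about 40uM) for 48 hours; firefly luciferase signal is then imaged following reagent-mediated lysis.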
Rango complex inh – Rango-importin beta binding inhibition | Q14974 | Rango CFP/YFP FRET sensor + importin beta, 45 min | Potency, µM (highest dose often 92.2 µM), for inactives: at the highest dose inhibition of complex formation | 340,000 compounds, 0.031% hits | AID 540263; active = rising FRET ratio curve, often small or poorly fitted; inconclusive = mostly compound fluorescence or quenching in the first reads; inactive = flat curves in all reads;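 note: potency is the fitted concentration of half-maximal effect; 0% = DMSO wells and 100% = buffer wells lacking importin beta; nearly all actives have a fitted effect of over 15% in size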
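FRET biosensor (snurportin 1 IBB flanked by EYFP and cerulean), 50 nM, with compound 5 min, then 0.125 microM importin beta in PBS, 1 mM DTT, 0.02% Tween-20, 0.1% BSA. CFP/YFP ratio read after 45 min at room temperature; pre-read flags interference.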
GLA inh pH 4.5 – alpha-galactosidase A (human) inhibition, pH 4.5 | P06280 | AID 1467 | purified enzyme, 4-MU-alpha-Gal fluorescence, pH 4.5 | activity change, negative = inhibition, % at 105 µM | 230,000 tested, under 10 active; inconclusive = small, poorly fitted or top-dose-only inhibition, or a rising curve; inactive = flat fitted curve, though single readings scatter; no compound was filed as active;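 note: 0% = full activity with enzyme and -100% = basal without enzyme; dose as in the result columns while the protocol names 77 µM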
Target sequence (P06280 whole entry, looked up): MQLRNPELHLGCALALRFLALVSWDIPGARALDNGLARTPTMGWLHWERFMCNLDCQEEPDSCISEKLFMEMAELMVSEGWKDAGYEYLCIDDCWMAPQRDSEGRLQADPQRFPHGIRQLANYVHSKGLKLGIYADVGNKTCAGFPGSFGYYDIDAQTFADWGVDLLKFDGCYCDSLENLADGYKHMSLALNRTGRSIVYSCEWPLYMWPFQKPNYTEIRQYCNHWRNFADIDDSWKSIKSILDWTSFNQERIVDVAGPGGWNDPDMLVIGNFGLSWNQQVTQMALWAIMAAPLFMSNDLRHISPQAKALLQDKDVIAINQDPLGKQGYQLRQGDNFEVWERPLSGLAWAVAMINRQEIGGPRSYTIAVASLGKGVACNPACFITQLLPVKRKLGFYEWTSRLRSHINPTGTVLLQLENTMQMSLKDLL
Rango release inh – inhibition of RanGTP-driven Rango-importin beta dissociation. O95149+P62826. Biochemical FRET Rango-importin beta, RanGTP-induced dissociation. Potency, µM (series often up to 46.1 µM), for inactives: at the highest dose activity change, negative = inhibition. 340,000 compounds, 0.071% hits. AID 540253; active means falling FRET ratio curve, often poorly fitted, with flat reads before Ran was added; inconclusive means other falling curves, or compound fluorescence or quenching; inactive means flat or rising ratio curve;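 note: potency is the fitted concentration of half-maximal effect; % of control where 0% means no effect; nearly all actives have a fitted effect of over 45% in size; -100% = wells without RanGTP and RCC1; the record marks most hits as doubtful in a second field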
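Two FRET readings bracket the reaction: one 5 min after compound meets Rango–importin beta, another 45 min after RanGTP-RCC1 (0.6 uM Ran, 0.2 uM RCC1, 2 mM GTP) is added. Only the second defines inhibition.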
Active calls of the source: *; ? = inconclusive; / = not tested or not shown; & = joins results of further samples.

SMILES	miR-21 reporter	Rango complex inh	GLA inh pH 4.5	Rango release inh
COc1ccc(NC(=O)c2ccc(CNc3c(N4CCCC4)c(=O)c3=O)cc2)cc1Cl	-10%	-0.2%	-25	25%
COCCNC(=O)C(c1ccc(C)cc1)N(C(=O)CCC(=O)Nc1ccccn1)c1cccc(C)c1 (stereo unspecified)	3%	3.6%	/	10%
CCCC(=O)C1=C(O)C(C(=O)OC)C(C)(C)CC1=Nc1ccc(OC)cc1 (stereo unspecified)	2%	-1.1%	-13	-8%
CCCOc1ccc(/C=C2\SC(=S)N(CC3CCCO3)C2=O)cc1 (stereo unspecified)	-2%	-3.4%	2	5%
O=C(CSc1nnc(CNC(=O)c2ccc(F)cc2)o1)Nc1nccs1	-1%	2.4%	/	-20%
N#Cc1ccc(-c2nc3cc(Cl)ccc3c(=O)n2O)cc1	10%	-0.1%	/	1%
O=C(COC(=O)/C=C/c1ccc([N+](=O)[O-])cc1)NC(=O)NC1CCCCC1	/	-0.7%	/	14%
C/C(=N\NC(=O)CN1CCN(Cc2ccccc2)CC1)c1cccs1	3%	3.4%	6	-17%
O=C(COC(=O)C12CC3CC(CC(C3)C1)C2)Nc1ccccc1F	-15%	2.6%	5	35%
O=C(Nc1ccc2oc(=O)ccc2c1)c1ccco1	-36%	6.8%	-3	-7%
c1ccc(Nc2nn[nH]n2)cc1	-3%	?	2	-3%
O=C(Nc1ccc(Cl)cc1)c1cccc(S(=O)(=O)Nc2ccccn2)c1	12%	-0.4%	/	12%
O=C(CN1CCN(c2ccccc2F)CC1)NCc1ccc(Cl)cc1	6%	-0.8%	/	-2%
Cc1ccc(C(c2nnnn2C2CCCC2)N2c3ccccc3CC2C)cc1 (stereo unspecified)	6%	?	-1	-23%
N#CCCSCc1ccc(OCC(=O)O)cc1	-3%	3.0%	3	7%
COc1ccccc1C(=O)NC(CCSC)C(=O)NCC(c1ccccc1OC)N1CCCC1 (stereo unspecified)	/	-0.8%	/	0%
CCCC1(c2ccccc2)NC(=O)N(CC(=O)Nc2ccc(N3CCOCC3)cc2)C1=O (stereo unspecified)	/	-2.6%	/	6%
Cc1ccc(C)c(NC(=O)CCC(=O)NNS(=O)(=O)c2ccc(Cl)cc2)c1	/	4.3%	/	3%
CCN(CC)S(=O)(=O)c1ccc(NC(=O)c2cc(-c3cccs3)nc3ccccc23)cc1	16%	-0.2%	0	-6%
CN1CCN(C(=O)CCc2ccc(S(=O)(=O)NC3CCCCC3)cc2)CC1	4%	2.3%	2	-6%
Nc1nc(-c2ccc(Cl)cc2)nn1C(=O)c1cccs1	-2%	3.0%	3	-8%
CC(C)COc1cccc(C(=O)Nc2ccc(N3CCOCC3)cc2N2CCOCC2)c1	/	2.5%	/	-3%
O=C(CCCCCNC(=O)c1ccccc1)N/N=C/c1ccccc1O	-39%	-3.4%	2	-2%
CCn1cc(Br)c(C(=O)NCc2ccco2)n1	-4%	-3.6%	1	6%
COc1cnc(-c2ccccn2)nc1NC(C)C	19%	0.1%	2	12%
Cc1ccc(S(=O)(=O)CCc2nnc(NC(=O)C3CCCCC3)s2)cc1	0%	-2.2%	0	9%
COc1ccc(C(=O)OCC(=O)c2c(N)n(C)c(=O)n(C)c2=O)c(OC)c1OC	/	-0.1%	/	1%
Cc1c(Cl)cccc1N/C(SCC(=O)N1CCCCCC1)=C(/C#N)c1nc2ccccc2s1	2%	?	-4	-30%
Cc1cc(C)c(S(=O)(=O)Nc2nnc(C(C)C)s2)c(C)c1	2%	-0.3%	/	15%
CCOC(=O)c1ccc(NS(=O)(=O)c2ccc3c(c2)n(C)c(=O)n3C)cc1	1%&-1%	2.7%	/	7%

Compound profiles, from the list above. Order of screens: miR-21 reporter, Rango complex inh, GLA inh pH 4.5, Rango release inh
Cc1c(Cl)cccc1N/C(SCC(=O)N1CCCCCC1)=C(/C#N)c1nc2ccccc2s1 across the screens: 2%, ?, -4, -30%
CCCC1(c2ccccc2)NC(=O)N(CC(=O)Nc2ccc(N3CCOCC3)cc2)C1=O (stereo unspecified) across the screens: /, -2.6%, /, 6%
Cc1cc(C)c(S(=O)(=O)Nc2nnc(C(C)C)s2)c(C)c1 across the screens: 2%, -0.3%, /, 15%
CCOC(=O)c1ccc(NS(=O)(=O)c2ccc3c(c2)n(C)c(=O)n3C)cc1 across the screens: 1%&-1%, 2.7%, /, 7%
O=C(CCCCCNC(=O)c1ccccc1)N/N=C/c1ccccc1O across the screens: -39%, -3.4%, 2, -2%

Additional results
SMILES	miR-21 reporter	Rango complex inh	GLA inh pH 4.5	Rango release inh
Cc1nc(C)c(CCNC(=O)c2ccccc2)s1	-9%	-0.5%	9	14%
Cc1nn(-c2ccccc2)c(N)c1C(O)(CSc1nccn1C)C(F)(F)F (stereo unspecified)	7%	-0.3%	-12	-6%
ClC1CCCCC1n1nnc2ccccc21 (stereo unspecified)	/	-3.8%	/	-1%
COC(=O)c1ccc(-c2ccc(/C=N/N3C(=O)C4C5C=CC(CC5)C4C3=O)o2)cc1 (stereo unspecified)	-20%	2.7%	5	-23%
CCN(CC(=O)Nc1c(F)cccc1F)C(=O)CCCc1c[nH]c2ccccc12	0%	0.3%	/	-5%
O=C(Cc1ccccc1F)Nc1cccc2cccnc12	-40%	-0.2%	-4	2%
Cc1c(C#N)c(O)[nH]c(=O)c1N=Nc1ccc(S(N)(=O)=O)cc1	-1%	-2.2%	/	16%
COc1ccc(CCNC(=O)Cn2cnc3c(nnn3Cc3ccccc3F)c2=O)cc1OC	-9%	-3.5%	-9	-5%
CC(=O)c1ccc(Nc2nc3ccccc3nc2NS(=O)(=O)c2cccs2)cc1	2%	-0.8%	/	0%
COc1ccc(C(C)C)cc1S(=O)(=O)n1cnc(C)c1	17%	3.2%	3	-6%
COC(=O)[C@]1(Cc2ccccc2)N[C@H](CN(C)C(=O)C2CCCCC2)[C@@H]2C(=O)N(Cc3ccccc3)C(=O)[C@@H]21	/	?	/	7%
CCNC(=S)N(Cc1ccc2c(c1)OCO2)C1CC(=O)N(c2ccc(OC)cc2)C1=O (stereo unspecified)	9%	?	-4	-3%
O=C(N1CCOCC1)C1(c2ccccc2)CCCCC1	0%	3.6%	2	-11%
CC(C)N=c1scc(-c2cccs2)n1/N=C/c1ccc(O)c(O)c1O	13%	-2.9%	4	-14%
CCCOc1ncnc2c1sc1nc3c(cc12)COC(C)(C)C3	-24%	0.5%	4	-9%
NS(=O)(=O)c1ccc(Nc2ccc3nonc3c2[N+](=O)[O-])cc1	2%	-4.9%	0	9%
Cc1cccc(NC(=O)NC(C)C(c2cccs2)N2CCOCC2)c1 (stereo unspecified)	-8%	0.6%	0	2%
CCc1ccc(C(=O)COC(=O)c2cc([N+](=O)[O-])ccc2N2CCOCC2)cc1	/	-1.5%	/	-14%
COc1cc(-c2cc(C(=O)Nc3cccc(C(C)=O)c3)c3ccccc3n2)cc(OC)c1OC	19%	-3.2%	/	-16%
CC(C(=O)NC1CCCCC1)N1CCN(C)CC1 (stereo unspecified)	-1%	-2.2%	6	-16%
O=C(C(Cc1ccccc1)N1C(=O)C2C3C=CC(C3)C2C1=O)N1CCCCC1 (stereo unspecified)	-1%	11%	-1	-3%
COc1ccc(NC(=O)CCCCCn2nnc3ccccc3c2=O)cc1OC	0%	0.7%	/	-27%
COc1ccccc1NC(=O)CSc1ccc(-c2ccc(-n3ccnc3)cc2)nn1	/	4.1%	/	-3%
O=C1CCC/C(=N/NC(=O)C2CCN(S(=O)(=O)c3cccs3)CC2)C1	-2%	-2.5%	-4	-1%
CCCC(=O)N1CCN(c2nnc(-c3ccc(C)cc3)c3ccccc23)CC1	7%	-0.6%	/	2%
CCN(CC(=O)Nc1ccc(NC(C)=O)cc1)C(=O)c1ccc(N(C)S(=O)(=O)c2ccc(C)cc2)cc1	/	-2.4%	/	-1%
COc1ccc(N2C(=O)CC(N(C)CCc3ccc(OC)c(OC)c3)C2=O)cc1 (stereo unspecified)	0%	0.5%	-2	-9%
CCc1ccc(C(=O)COC(=O)CNC(=O)c2ccc(Br)o2)cc1	-1%	-1.6%	/	15%
CCOC(=O)C1CCN(c2ccc(Cl)nn2)CC1	-4%	0.4%	2	25%
Cn1c(SCC(=O)NCCN2C(=O)CSC2=O)nc2ccccc2c1=O	-1%	-2.3%	-9	-12%
Cc1ccc(CN(Cc2cc3cc4c(cc3[nH]c2=O)OCCO4)Cc2nnnn2Cc2ccco2)cc1	0%	?	5	-29%
Cc1cc(C)nc(OC(C(=O)O)C(OCC(C)C)(c2ccccc2)c2ccccc2)n1 (stereo unspecified)	16%	-5.2%	/	-4%
CCN(CC)S(=O)(=O)c1ccc(Cl)c(NC(=O)COC(=O)c2cccn2C)c1	24%	5.6%	?	12%
COc1ccc(-c2cc3cc(OC)c(OC)cc3c(C)n2)cc1C	-18%	0.5%	-6	-15%
O=C(N/N=C/C=C/c1ccccc1)c1ccncc1	0%	3.9%	-6	-20%
Cc1cc(C)nc(SCc2cccc(C(=O)O)c2)n1	6%	2.6%	3	-9%
Cc1cc(OCCOCCN2CCCC2)ccc1C(C)C	-6%	?	-7	-11%
O=C(COC(=O)/C=C/c1ccccc1)Nc1ccc(Cl)cn1	/	1.7%	/	0%
CCOC(=O)C1CCCCN1C(=O)CCc1c(C)nc2cc(-c3ccccc3)nn2c1C (stereo unspecified)	23%	-0.9%	-8	0%
CCn1c(SCC(=O)Nc2nc(C)cs2)nnc1-c1ccncc1	1%	2.0%	/	2%
CC(C)Cc1nn2c(=O)cc(O)nc2s1	-5%	0.1%	-3	12%
CCCC(=O)NC1CCCc2c1cnn2-c1ccc(C)c(C)c1 (stereo unspecified)	-11%	-0.2%	/	-13%
CCN(C(=O)CSc1ncn[nH]1)c1c(N)n(Cc2ccccc2)c(=O)[nH]c1=O	/	4.4%	/	29%
Cc1ccc(S(=O)(=O)N2CCN(C(=O)COc3ccc(NC(=O)c4ccco4)cc3)CC2)cc1	-7%	4.1%	6	-7%
CCN(CC)CCC#CC(O)(c1ccccc1)c1ccccc1	-3%	1.9%	0	9%
CCOC(=O)c1nc(-c2ccccc2)oc1N(C)C	-8%	-0.6%	-1	-10%
CC(=O)c1ccc(NC(=O)c2onc(C)c2Cl)cc1	-28%	-1.2%	/	-3%
CCOc1ccc(N2CC(C(=O)Nc3ccc(N4CCOCC4)cc3)CC2=O)cc1 (stereo unspecified)	-4%	-2.2%	1	12%
CC(c1ccon1)N(C)Cc1cn[nH]c1-c1ccc(F)cc1F (stereo unspecified)	1%	2.5%	-4	1%
COc1ccc(-c2[nH]ncc2CN(C)C(C)c2cccs2)c(F)c1 (stereo unspecified)	-4%	0.8%	-3	30%
CCOC(=O)c1sc(NC(=O)/C=C/c2cnn(C)c2C)c(C(=O)OCC)c1C	0%	/	-1	/
CC(=O)c1cccc(NC(=O)CSc2nc(=O)n(Cc3ccccn3)c3c2CCC3)c1	/	-0.3%	/	1%
CCC1(N(C(C)=O)c2ccc(OC)cc2)C(=O)c2ccccc2C1=O	16%	-0.7%	7	-9%
O=C(NCc1ccccc1)c1ccccc1Br	-4%	0.0%	10	7%
CCN(CC)S(=O)(=O)c1ccc(S(=O)(=O)N2CCC(C(=O)NC3CCN(Cc4ccccc4)CC3)CC2)cc1	9%	2.6%	/	1%
COc1cc(C(=O)C(O)c2ccc(O)c(OC)c2)ccc1O (stereo unspecified)	/	2.3%	/	14%
COc1ccc(NC(=O)CN(C)CC(=O)Nc2ccc(Cl)cc2F)cc1	-9%	-4.4%	1	3%
COc1cccc(NC(=O)CN(Cc2ccccc2)S(C)(=O)=O)c1	2%	-2.1%	-4	19%
CCC1=NN(C(=O)COc2ccccc2)C(O)(c2ccncc2)C1 (stereo unspecified)	-3%	-2.9%	2	-7%
COc1ccc(-c2[nH]ncc2/C=N/NC(=O)c2ccncc2)c(OC)c1	-1%	3.7%	/	-3%
CC1(C(=O)NCc2ccccn2)C=CCN1C(=O)c1ccccc1 (stereo unspecified)	-20%	0.2%	5&-2	-1%
Cc1onc(-c2cccc(Cl)c2Cl)c1C(=O)O/N=C(\N)c1ccc([N+](=O)[O-])o1	12%	-0.1%	-12	-7%

These rows are one share of the data; rates above refer to the full screens.
